# High-throughput results: PubChem BioAssay, several laboratories
# RanGTP-Impb inh: inhibitors of RanGTP-importin-beta interaction, primary screen, biochemical, FRET, CFP-Ran, YFP-importin-beta, homogeneous; Ran GTPase (GTP-bound) - importin-beta complex; cell-free CFP-Ran/YFP-importin-beta FRET ratio; inhibition, % (test concentration not listed); 300,000 tested, 1.1% active;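 active = most replicates above 15%; inconclusive = exactly half above 15%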;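 also: 0% = DMSO wells and 100% = Ran loaded with GDP instead of GTP; wells of about 40 µL received 100 nL stock; the first replicate is given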
# Beta cell apopt: inhibitors of cytokine-induced beta cell apoptosis, primary screen, luminescence; INS-1E cytokine-induced death, ATP luminescence, 48 h; percent of positive-control rescue, neutral wells zero; protection from apoptosis, % (no concentration beside the values); 300,000 tested, 0.8% active;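 active = all replicates at 75% or more, or half of them and the mean; inconclusive = half reach 75% but not the mean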;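 also: 0% = cytokine-treated negative control wells and 100% = positive control rescue; higher means more ATP so stronger rescue from cytokine killing; wells of about 40 µL received 100 nL stock; the first replicate is given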
# T cruzi repl: inhibitors of intracellular T. cruzi growth, primary screen, luminescence, NIH3T3 host cells. T. cruzi beta-gal in NIH3T3, 90 h. inhibition, % (no concentration beside the values). 300,000 tested, 1.4% active. AID 1885, 2009;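 active = mean inhibition across valid replicates above about 55%, limit read from the data; inconclusive = mean below that limit but half or more replicates reach it; inactive = mean below it, under half of replicates reach it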;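 also: signal also drops with host cell toxicity which is not excluded here; 0% = plate median of DMSO wells and 100% = zero luminescence signal; higher percent means less beta-gal luminescence so fewer parasites; stock transfer was 50 nL into about 50 µL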
# Calb FLC: C. albicans growth inhibition with fluconazole, primary screen, CaCi-2 strain, Alamar Blue fluorescence; C. albicans CaCi-2 (fluconazole-resistant clinical isolate) + fluconazole, 48 h; growth inhibition, % (test concentration not listed); 300,000 tested, 0.57% active;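 active = most replicates above 75%; inconclusive = exactly half above 75%; inactive = most below 75%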;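 also: all wells also contain fluconazole at 8 µg/ml as a sub-toxic cotreatment; 0% = median of DMSO wells and 100% = median of geldanamycin control wells; wells of about 8 µL received 7.5 nL stock; the first replicate is given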
# MLL AF4-AF9 inh: inhibitors of AF4 peptide binding to AF9, primary screen, biochemical, AlphaScreen, biotin-AF4 peptide, FLAG-AF9, single point; AID 651704, 2012; inhibition, % at 10 µM; 350,000 tested, 0.47% active; Protein AF-9 (Homo sapiens), P42568;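 active = every replicate reaching a set inhibition limit, whatever the replicate mean, cut at about 25% in these data; inconclusive = mean inhibition reaches that limit but some replicates miss it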;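 also: 0% = plate neutral control median and 100% = total signal loss; the record names both 10 and 1 µM as test concentration; the first replicate is given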
# Target sequence (P42568 whole entry, looked up): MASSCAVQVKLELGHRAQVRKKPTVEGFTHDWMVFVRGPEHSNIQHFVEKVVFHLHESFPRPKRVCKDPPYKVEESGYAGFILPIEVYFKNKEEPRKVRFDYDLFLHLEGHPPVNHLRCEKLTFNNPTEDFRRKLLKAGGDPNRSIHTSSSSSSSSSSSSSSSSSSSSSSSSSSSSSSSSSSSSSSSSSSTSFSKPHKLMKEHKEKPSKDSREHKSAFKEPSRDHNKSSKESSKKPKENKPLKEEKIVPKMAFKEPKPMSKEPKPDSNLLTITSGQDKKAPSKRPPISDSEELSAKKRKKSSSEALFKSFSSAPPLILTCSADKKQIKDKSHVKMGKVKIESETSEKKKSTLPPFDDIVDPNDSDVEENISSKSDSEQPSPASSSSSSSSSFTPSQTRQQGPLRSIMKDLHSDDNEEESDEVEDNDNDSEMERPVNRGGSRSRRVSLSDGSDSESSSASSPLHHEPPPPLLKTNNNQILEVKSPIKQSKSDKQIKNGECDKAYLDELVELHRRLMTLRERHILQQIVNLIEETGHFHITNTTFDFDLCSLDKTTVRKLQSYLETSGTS
# Vif A3G: inhibitors of Vif binding to APOBEC3G peptide, primary screen, biochemical, TR-FRET, GST-Vif 1-94, biotin-A3G peptide, dose response retest (AID 1117319). one-dose inhibition, %; IC50 in µM for titrated hits. TR-FRET GST-Vif / biotin-A3G peptide binding; higher % means a stronger effect; test concentration not given here; strong numbers were not always called active. 260,000 tested, 0.57% active;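 active = above the screen mean plus three standard deviations and confirmed in dose response; inconclusive = results disagree or hit not tested in dose response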;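 also: Vif residues 1-94 fused to GST binding biotinylated APOBEC3G peptide 110-148; 0% = full assay without inhibitor and 100% = GST in place of GST-Vif; retest series ran down from 100 µM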
# Ecoli rRNA inh: reduced GFP signal of wild-type E. coli, primary screen, bacterial rRNA inhibitor project, GFP/RFP fluorescence, OD600, single point. E. coli WT GFP vs humanized-ribosome RFP mutants, 24 h; stronger effect = lower value; DMSO median 0, no signal -100. GFP signal change (wild-type ribosome), % (concentration not given with the values). 350,000 tested, 1.6% active. AID 720706, 2013;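 active = significant combined selectivity score with lowered wild-type GFP, culture density cut under 30%, mutant RFP and density less affected; inactive = any of these conditions unmet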; also: one replicate is shown; some compounds called inactive have numbers as strong as hits
# Bfl-1 A1 inh: caspase 3/7 activation in MEF A1-2A-BIM cells, primary screen, A1 inhibitor project, cell-based, luminescence, HTS | caspase activation, % (test concentration not listed) | 330,000 tested, 0.066% active | Caspase-Glo 3/7 luminescence, 3 h; percent of clofoctol response, vehicle zero;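 active = over half of replicate activation scores above 10%, or exactly half above 10 with the replicate mean above 10; inconclusive = replicate mean below 10 yet half the replicates above 10; inactive = over half of replicates below 10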;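 also: wells of about 30 µL received 50 nL stock; many hits fall short of the cut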
# Ecoli rRNA inh OD600: also measured in Ecoli rRNA inh; calls as there; OD600 change, %; measured here: OD600 growth;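 optical density of the mix in the first replicate; 0 = DMSO median and -100 = no signal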
# Ecoli rRNA inh RFP: recorded beside Ecoli rRNA inh, whose call it bears; RFP signal change, %; measured here: RFP humanized mutant strains;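 first replicate; 0 = DMSO median and -100 = no signal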
# The depositor's hits bear a star; ? = inconclusive; / = not tested or not shown. The list is partial; count on the stated rates, not on these rows.
SMILES,RanGTP-Impb inh,Beta cell apopt,T cruzi repl,Calb FLC,MLL AF4-AF9 inh,Vif A3G,Ecoli rRNA inh,Ecoli rRNA inh OD600,Ecoli rRNA inh RFP,Bfl-1 A1 inh
Cc1cccc(OCCCN2CCOCC2)c1,-1.2,2,-6,-18,-8.6,-1%,17,12,3.6,0.8
O=C(CSc1nnc(-c2ccco2)o1)N1CCOCC1,-0.7,-5,-15,-15,/,10%,/,/,/,0.9
O=S(=O)(NCC1CCCN(Cc2ccccc2)C1)c1cccc2cccnc12 (stereo unspecified),0.0,-1,20,19,-0.1,/,4,4,-2.0,1.8
O=C(N/N=C/c1ccccc1C(=O)O)c1cccc(S(=O)(=O)N2CCCCC2)c1,/,4,/,/,-6.2,-7%,6,11,-2.3,0.4
Cn1c(N)c(C(=O)COC(=O)/C=C/c2ccc(Cl)cc2Cl)c(=O)n(C)c1=O,/,-5,/,/,-3.3,/,7,5,4.4,-1.6
O=C1CCCc2c1[nH]c1ccc(Cl)cc21,-0.6,1,0,11,/,28%,/,/,/,-0.1
CC(C)(C)c1ccc(OCC(=O)O/N=C(\N)c2ccncc2)cc1,-1.1,-2,13,-12,-1.5,/,-53,-80,-15,0.1
O=C(CN1CCN(C(c2ccccc2)c2ccccc2)CC1)NCc1ccccc1,2.2,3,15,23,-1.3,/,-50,-75,-28,0.6
Cc1ccc(C)c(OCCC(=O)NCCc2ccc(F)cc2)c1,1.9,-6,8,20,-4.6,-8%,-3,-41,-8.3,-0.5
O=C(Nn1cnnc1)c1ccc([N+](=O)[O-])cc1,-3.5,-1,-10,-6,0.7,4%,12,19,-0.4,1.2
CCN1CCN(CC(=O)Nc2cc(S(=O)(=O)N(CC)c3ccccc3)ccc2Cl)CC1,/,-8,/,/,6.2,-9%,1,1,10,0.8
O=C(NC1CCCC1)C(c1ccncc1)N(C(=O)c1csnn1)c1ccc(F)cc1 (stereo unspecified),-0.4,-5,-1,-6,4.5,/,2,0,-1.3,-0.2
CCOc1ccccc1NC(=S)NCCCn1ccnc1,3.2,-3,-6,17,-2.5,0%,7,8,3.0,0.9
Nc1nc(Nc2ccccc2F)nc(N2CCOCC2)c1[N+](=O)[O-],3.7,-2,-8,3,1.0,4%,-20*,4.8*,5.9*,0.1
COCCCn1c(C)csc1=Nc1cccnc1,0.0,0,0,3,4.8,/,3,6,0.7,0.1
COC(=O)Cn1ncc(N(C)Cc2ccccc2)c(Cl)c1=O,6.5,7,-2,13,-1.6,/,0,-7,-1.4,0.8
CC(C)(C)c1csc(NC(=O)CS(=O)(=O)c2ccccc2)n1,-3.9,/,-2,0,-1.8,/,-12,-12,5.0,0.0
CC(C)c1ccc(NC(=S)NCc2cccs2)cc1,-1.9,-4,3,-42,/,2%,/,/,/,0.2
COc1ccc(-c2c(-c3ccccc3OC)oc3ccccc23)cc1F,/,1,/,/,4.0,/,5,2,2.6,0.9
CCOC(=O)c1cnc2nc[nH]n2c1=O,8.6,-2,6,-2,-2.9,31%,6,-6,2.2,-0.1
COc1ccc(-c2nc(C)ncc2-c2ccccc2)c(O)c1,3.9,-2,16,-7,6.1,-4%,-28*,-14*,-2.0*,0.6
Cc1ccc(C(=O)c2ccccc2C(=O)OCC(=O)NCCc2ccc(Cl)cc2Cl)cc1,0.6,-5,-1,1,/,-2%,/,/,/,0.5
CCCNC(=O)NC(=O)CSc1nc2ccccc2c(=O)n1Cc1ccncc1,-0.5,3,3,3,-6.2,-3%,10,11,2.0,0.2
Cc1ccc(C2(C)NC(=O)N(CC(=O)N3CCN(S(=O)(=O)c4cccc(F)c4)CC3)C2=O)cc1 (stereo unspecified),2.1,-4,-12,-4,-0.8,0%,3,10,0.7,0.5
C=CCNCc1cccn1-c1sc2c(c1C#N)CCCC2,4.1,-6,5,-21,/,-2%,/,/,/,-0.2
COc1ccccc1OCCn1c(SCC(N)=O)nc2ccccc21,-4.4,-7,-7,6,0.6,2%,2,-2,-5.0,1.4
CCCCN1C(=O)/C(=C/C=C2\SCCN2C)SC1=S,1.2,/,27,0,16,3%,-30,-29,65,/
CN(Cc1ccccc1)c1c([N+](=O)[O-])c(=O)n(C)c2ccccc12,3.0,-22,18,-44,5.6,-9%,-34,-36,-2.3,0.3
COCc1nnc(NC(=O)c2cc(OC)c(OC)cc2[N+](=O)[O-])s1,-1.0,1,-18,6,/,4%,/,/,/,0.1
CCOC(=O)c1ccc(NC(=S)NCc2ccc(F)cc2)cc1,-0.2,-6,5,-2,0.1,/,-49,-78,-15,-0.2
CCCc1nnc(SCC(=O)O)n1CC,-1.5,0,-2,4,-6.7,-5%,8,6,-0.9,-0.4
NC(=O)Nc1ccc(C(=O)OCC(=O)Nc2ccc([N+](=O)[O-])cc2C(F)(F)F)cc1,-3.0,-3,3,-10,0.8,24%,4,15,-7.9,-0.1
c1cc(-n2nnc3cnccc32)ccn1,0.2,0,-7,8,-5.5,30%,27,24,3.4,0.5
CCn1c(CNC(=O)c2ccc(F)cc2)cc2ccccc21,-2.1,0,?,23,-7.0,/,14,4,12,0.4
O=C(O)c1cccc(S(=O)(=O)N2CCOCC2)c1,-0.1,-8,/,-2,5.0,-3%,16,12,-6.6,-0.6
O=C(CSc1ccc(Cl)cc1)Nc1cccc(NC(=O)c2ccco2)c1,-0.1,-1,-11,-12,/,1%,/,/,/,-0.7
Cc1cccc(NC(=O)C(=O)NCC2CCCO2)c1 (stereo unspecified),1.1,0,-6,2,-3.3,/,-7,3,-0.3,-5.5
O=C(Nc1nc2ccsc2c(=O)s1)C1CCC1,-0.8,4,-11,0,-0.4,32%,-7,-3,0.4,-3.8
Cc1ccc(C(=O)COc2ccc3c(C)cc(=O)oc3c2)cc1,-1.0,2,-5,4,0.2,-8%,-3,2,-0.3,-0.6
Cc1ccc(CNn2cn[nH]c2=S)cc1,5.6,-13,-10,-2,-5.1,/,6,4,1.3,0.0
Cc1cc(C)nc(SCc2cn3c(C)cc(C)nc3n2)n1,-2.0,-8,-2,14,-1.5,-13%,-5,3,-2.7,2.6
O=C(OCc1ccc(Br)cc1)c1cccc(-c2nnc(-c3ccccc3)o2)c1,0.0,-2,12,-1,/,/,/,/,/,-4.8
Cc1ccc(S(=O)(=O)NCCNC(=O)N2CCOCC2)cc1,0.2,2,-15,-21,/,6%,/,/,/,0.0
CC(=O)Nc1ccc(NC(=O)c2sc3nc4n(c(=O)c3c2C)CCCCC4)cc1,?,-1,24,-4,2.1,-1%,/,/,/,0.1
CC(C)(C)OC(=O)NCCCC[C@H](NC(=O)c1[nH]cnc1C(=O)Nc1ccccc1)C(=O)OC(C)(C)C,0.9,27,46,21,4.3,28%,3,-4,-0.2,-1.3
CSCC(=O)N1CCCC(CNC(=O)c2ccccc2Cl)C1 (stereo unspecified),4.6,/,-2,-7,-1.1,-8%,28,21,3.2,0.8
O=C(Nc1ccc(F)cc1)N1CCc2ccccc2C1,-1.6,-2,7,?,-0.6,/,-14,7,7.0,-7.8
CCN(CCCNC(=O)c1[nH]c(C)c(C(C)=O)c1C)c1cccc(C)c1,-2.7,3,7,3,/,?,/,/,/,0.8
Fc1ccccc1NC(=S)Nc1ccc(Br)cc1,2.9,-5,-35,-17,/,8%,/,/,/,-1.3
Cn1cc(C(=O)c2cccc(Cl)c2)cc1/C=N\O,-0.7,/,8,-6,2.3,/,-6,-6,-5.9,-2.2
Cc1ccc(C(=O)Nc2cccc([N+](=O)[O-])c2)cc1S(=O)(=O)Nc1ccc(NC(=O)c2ccccc2)cc1,0.1,3,43,23,/,?,/,/,/,0.3
Cc1ccc(NC(=O)Cn2cc(C(=O)C3CC3)c3ccccc32)cc1,-0.1,-2,-2,-4,0.2,/,4,15,-1.8,0.7
O=C(Nc1nc2c(Cl)c(Cl)ccc2s1)C1CC1,?,6,-5,-3,7.8,/,-9,-12,-4.3,-0.6
Cc1cccc(C(=O)Nc2ccc(S(=O)(=O)N3CCOCC3)cc2C)c1,3.4,-7,8,-5,-5.9,/,8,9,0.7,0.0
COc1ccc(Br)cc1CN1CCC(N2CCCC2)CC1,0.0,2,38,1,-1.4,/,18,2,-0.2,0.6
CC1(C)C2CCC1(CS(=O)(=O)N1CCN(c3ccccc3F)CC1)C(=O)C2 (stereo unspecified),-1.0,-3,6,-7,-1.7,/,-8,-5,0.4,0.1

# Part of the list above, field by field:
Compound: O=C(O)c1cccc(S(=O)(=O)N2CCOCC2)c1
  RanGTP-Impb inh: -0.1	Beta cell apopt: -8	T cruzi repl: /	Calb FLC: -2	MLL AF4-AF9 inh: 5.0	Vif A3G: -3%	Ecoli rRNA inh: 16	Ecoli rRNA inh OD600: 12	Ecoli rRNA inh RFP: -6.6	Bfl-1 A1 inh: -0.6
Compound: O=C(CSc1ccc(Cl)cc1)Nc1cccc(NC(=O)c2ccco2)c1
  RanGTP-Impb inh: -0.1	Beta cell apopt: -1	T cruzi repl: -11	Calb FLC: -12	MLL AF4-AF9 inh: /	Vif A3G: 1%	Ecoli rRNA inh: /	Ecoli rRNA inh OD600: /	Ecoli rRNA inh RFP: /	Bfl-1 A1 inh: -0.7

# Full records, quoted from the list.
# Record of CC1(C)C2CCC1(CS(=O)(=O)N1CCN(c3ccccc3F)CC1)C(=O)C2 (stereo unspecified) : RanGTP-Impb inh = -1.0; Beta cell apopt = -3; T cruzi repl = 6; Calb FLC = -7; MLL AF4-AF9 inh = -1.7; Vif A3G = /; Ecoli rRNA inh = -8; Ecoli rRNA inh OD600 = -5; Ecoli rRNA inh RFP = 0.4; Bfl-1 A1 inh = 0.1
# Record of CC(=O)Nc1ccc(NC(=O)c2sc3nc4n(c(=O)c3c2C)CCCCC4)cc1 : RanGTP-Impb inh = ?; Beta cell apopt = -1; T cruzi repl = 24; Calb FLC = -4; MLL AF4-AF9 inh = 2.1; Vif A3G = -1%; Ecoli rRNA inh = /; Ecoli rRNA inh OD600 = /; Ecoli rRNA inh RFP = /; Bfl-1 A1 inh = 0.1
# Record of CCN(CCCNC(=O)c1[nH]c(C)c(C(C)=O)c1C)c1cccc(C)c1 : RanGTP-Impb inh = -2.7; Beta cell apopt = 3; T cruzi repl = 7; Calb FLC = 3; MLL AF4-AF9 inh = /; Vif A3G = ?; Ecoli rRNA inh = /; Ecoli rRNA inh OD600 = /; Ecoli rRNA inh RFP = /; Bfl-1 A1 inh = 0.8
